Screening data as filed in PubChem.
eIF4H FP inh – human eIF4H binding inhibitors, primary screen, translation initiation inhibitor project, biochemical, uHTS, fluorescence polarization. Eukaryotic translation initiation factor 4H (Homo sapiens), Q15056. eIF4H fluorescence polarization binding assay. inhibition, % at 35 µM. actives 0.94% (n = 290,000). AID 2012, 2009;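 active = 50% or more with normal probe brightness, or confirmed in later tests; inconclusive = above 50% with abnormal brightness, or retests that disagree; inactive = below 50% or failed in later tests; about a fifth of its hits are not listed in these tables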;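 note: calls also rest on retests at 20 µM and on dose response follow-up; 0% = protein and probe with vehicle and 100% = probe without protein; strong numbers were not always called active; many hits fall short of the cut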
CSC inhib – cancer stem cell viability inhibitors, primary screen, luminescence | AID 2717, 2010 | inhibition, % at 7.5 µM | actives 1.1% (n = 300,000) | cancer stem cell-like cells viability;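 active = mean at 75% or more and at least half the replicates too; inconclusive = mean and replicates disagree; tested in HMLE shEcad cells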;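 note: 0% = median of negative and 100% = median of positive control wells; the first replicate is given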
PABP FP inh – PABP poly(A) RNA binding inhibitors, primary screen, biochemical, fluorescence polarization, uHTS; Polyadenylate-binding protein 1 (Homo sapiens), P11940; inhibition, % at 35 µM; actives 1% (n = 290,000);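 active = 50% or more with normal probe brightness, or confirmed in later tests; inconclusive = above 50% with abnormal brightness, or retests that disagree; inactive = below 50% or failed in later tests; about a fifth of its hits are not listed in these tables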;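 note: calls also rest on retests at 20 µM and on dose response follow-up; controls were probe without protein and protein plus probe with vehicle; some compounds called inactive have numbers as strong as hits; many hits fall short of the cut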
Target sequence (P11940 whole entry, looked up): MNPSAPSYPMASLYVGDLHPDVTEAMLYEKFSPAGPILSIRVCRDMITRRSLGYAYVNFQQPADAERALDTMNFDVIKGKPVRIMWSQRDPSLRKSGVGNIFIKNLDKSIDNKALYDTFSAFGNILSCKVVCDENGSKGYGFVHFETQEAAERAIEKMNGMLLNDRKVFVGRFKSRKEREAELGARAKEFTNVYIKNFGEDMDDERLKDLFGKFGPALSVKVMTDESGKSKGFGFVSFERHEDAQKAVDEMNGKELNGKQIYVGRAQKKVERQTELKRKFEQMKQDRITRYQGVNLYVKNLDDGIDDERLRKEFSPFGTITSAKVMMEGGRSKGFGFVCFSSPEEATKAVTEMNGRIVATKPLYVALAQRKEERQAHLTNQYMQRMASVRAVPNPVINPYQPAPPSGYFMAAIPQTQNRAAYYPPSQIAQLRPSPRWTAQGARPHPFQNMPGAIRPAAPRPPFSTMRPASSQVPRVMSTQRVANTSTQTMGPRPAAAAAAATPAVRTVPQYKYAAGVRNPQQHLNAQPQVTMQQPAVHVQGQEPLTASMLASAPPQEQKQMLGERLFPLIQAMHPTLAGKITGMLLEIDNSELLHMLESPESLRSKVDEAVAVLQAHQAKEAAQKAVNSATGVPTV
Rce1 inh – yeast Rce1p protease inhibitors, primary screen, biochemical, fluorescence, cell-free homogeneous. calls only. actives 0.27% (n = 290,000). yeast membranes, quenched prenylated peptide cleavage fluorescence;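 active = fall in fluorescence gain of 50% or more versus controls, with final raw signal at or below 3038400; inconclusive = same 50% fall but final raw signal above 3038400; inactive = fall in fluorescence gain under 50%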;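 note: plate controls were neutral control wells for no effect and wells lacking membranes for full effect; tested at 10 µM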
Env fusion inh – inhibitors of HIV-1 Env-driven cell-cell fusion, primary screen, HeLa-JRFL effector, CEM21 target cells, luciferase. inhibition, % at 12.3 µM. actives 1.1% (n = 360,000);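 active = mean replicate inhibition score of at least 50 and every replicate individually at or above 50; inconclusive = only one of the two criteria met; inactive = mean below 50 and not all replicates reaching 50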;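 note: 0% = plate neutral controls and 100% = maraviroc near 300 nM; one replicate is shown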
Yeast UUG start – modulators of yeast start codon fidelity, primary screen, whole organism, S. cerevisiae, single point, plate reader; S. cerevisiae UUG-firefly luciferase reporter, luminescence/redox ratio; activity score, % at 18.7 µM; actives 0.13% (n = 350,000); AID 602363, 2012;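 active = replicate mean at a twofold rise or more, about +100% in these data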;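 note: firefly luciferase made from a UUG start codon reports start codon fidelity; reporter light over untreated wells divided by growth signal over untreated wells; some hits fall short of that in this replicate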
MT1-MMP act inh – blockers of MT1-MMP proenzyme processing, primary screen, HT1080 RFP-PRO-GFP cells, GFP/RFP fluorescence; GFP/RFP ratio fluorescence, overnight; percent of plate control window, DMSO zero; GFP/RFP ratio change, % at 20 µM; actives 0.061% (n = 360,000); Matrix metalloproteinase-14 (Homo sapiens), P50281;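 active = GFP/RFP ratio change of at least 30% with cell ATP level not reduced by more than half and red fluorescence within 50% of control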; note: strong numbers were not always called active
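Assay system – RFP-PRO-GFP reporter HT1080 cells · Compound dosing – single dose of 20 µM compound, 1% DMSO final · Incubation – overnight compound exposure at 37 °C · Measure – GFP/RFP fluorescence ratio · Benchmarks – DMSO wells and RFP-L50D-GFP cells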
MT1-MMP act inh RFP – recorded beside MT1-MMP act inh, whose call it bears; RFP signal change, %; measured here: RFP expression control read;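 0 = vehicle wells; hits needed this value within 50% of zero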
* hit, by the source's call; i = inactive; ? = inconclusive; / = not tested or not shown.

1	N#Cc1cc2cc3c(cc2nc1SCC(=O)N1CCOCC1)OCCO3
2	N#C/C(=C\c1ccc([N+](=O)[O-])o1)C(=O)Nc1ccc(F)cc1
3	CCOC(=O)C1CCN(C(=O)c2cc3cc(F)ccc3[nH]2)CC1
4	Cc1ccnc(NS(=O)(=O)c2ccc(NS(=O)(=O)c3cc(Cl)ccc3Cl)cc2)n1
5	O=C(Nc1nc(-c2nc3ccccc3s2)cs1)c1ccc(S(=O)(=O)N2CCOCC2)cc1
6	Cc1cc(NN)nc2ccc(Cl)cc12
Screen / compound no.	1	2	3	4	5	6
eIF4H FP inh	10	45	7	-16	10	1
CSC inhib	/	13	-2	1	18	-8
PABP FP inh	8	44	-1	49	-4	-10
Rce1 inh	i	i	i	i	i	i
Env fusion inh	-29	5	-5	-3	/	40
Yeast UUG start	-1	/	-4	-1	-10	/
MT1-MMP act inh	3	-26	1	-5	1	3
MT1-MMP act inh RFP	3	49	1	5	-18	5

7	COc1ccc(NS(=O)(=O)c2cccc(C(=O)NN=Cc3ccc(O)c(OC)c3)c2)cc1
8	COC(=O)CSc1ccccc1C(=O)OC
9	CN(C(=O)C12CC3CC(CC(C3)C1)C2)C1(C)CCS(=O)(=O)C1 (centres undefined)
10	Cc1ccsc1/C=C/C1=Cc2c(sc(NC(=O)CSc3n[nH]c(N)n3)c2C#N)C(C)(C)C1
11	O=C(NCC1CCCO1)C1CCCCN1S(=O)(=O)c1ccc(F)cc1 (centres undefined)
12	Cc1ccc(C(=O)N2CCN(Cc3ccc4c(c3)OCO4)CC2)o1
Screen / compound no.	7	8	9	10	11	12
eIF4H FP inh	/	3	0	?	-2	1
CSC inhib	/	-4	-4	19	-16	-2
PABP FP inh	/	-4	-2	?	6	11
Rce1 inh	/	i	i	i	i	i
Env fusion inh	13	/	/	-29	-71	-18
Yeast UUG start	-16	-15	6	-19	-11	-11
MT1-MMP act inh	1	7	3	-44	0	1
MT1-MMP act inh RFP	1	2	8	2	0	-1

13	CC(C)(/C=N/O)/[N+]([O-])=C/C=[N+](\[O-])C(C)(C)/C=N/O
14	CCOC(=O)C1=C(COC(=O)C2CC(=O)N(CCc3ccccc3)C2)NC(=O)NC1C (centres undefined)
15	CCOC(=O)c1[nH]c2c(c1-c1ccccc1)C(=O)CC(c1ccc(Cl)cc1)C2 (centres undefined)
16	CCOCCCNC(=O)C(=O)NCCCOCC
17	CN(C(=O)c1cccc(NC(=O)Cc2ccc(NC(=O)C3CCN(S(=O)(=O)c4cccc([N+](=O)[O-])c4)CC3)cc2)c1)C1CCCC1
18	O=C(N1CCN(c2ncccn2)CC1)C12CC3CC(CC(C3)C1)C2
Screen / compound no.	13	14	15	16	17	18
eIF4H FP inh	33	/	-2	-5	/	/
CSC inhib	-4	0	13	1	/	3
PABP FP inh	6	/	-8	-7	/	/
Rce1 inh	i	/	i	i	/	i
Env fusion inh	/	/	-136	-1	-33	-10
Yeast UUG start	-14	-6	-16	/	-16	/
MT1-MMP act inh	3	2	-2	0	3	6
MT1-MMP act inh RFP	6	2	1	2	-5	-2

In the list so far, these have a furan ring, fused or not:
2	N#C/C(=C\c1ccc([N+](=O)[O-])o1)C(=O)Nc1ccc(F)cc1
12	Cc1ccc(C(=O)N2CCN(Cc3ccc4c(c3)OCO4)CC2)o1
Screen / compound no.	2	12
eIF4H FP inh	45	1
CSC inhib	13	-2
PABP FP inh	44	11
Rce1 inh	i	i
Env fusion inh	5	-18
Yeast UUG start	/	-11
MT1-MMP act inh	-26	1
MT1-MMP act inh RFP	49	-1

The listing picks up, repeating the 4 entries before the break.
15	CCOC(=O)c1[nH]c2c(c1-c1ccccc1)C(=O)CC(c1ccc(Cl)cc1)C2 (centres undefined)
16	CCOCCCNC(=O)C(=O)NCCCOCC
17	CN(C(=O)c1cccc(NC(=O)Cc2ccc(NC(=O)C3CCN(S(=O)(=O)c4cccc([N+](=O)[O-])c4)CC3)cc2)c1)C1CCCC1
18	O=C(N1CCN(c2ncccn2)CC1)C12CC3CC(CC(C3)C1)C2
19	COc1cc(C(c2c(O)cc(C)[nH]c2=O)c2c(O)cc(C)[nH]c2=O)ccc1O
20	O=C(CSc1nc2ccccc2o1)Nc1nc(-c2ccccc2)c(-c2ccccc2)s1
21	COc1ccc(OC)c(/C=C/C(=O)Nc2ccc3c(c2)CCC3)c1
22	COC(=O)[C@H](CCSC)NC(=O)NC1CCN(Cc2ccccc2)CC1
23	CSCC[C@H](NC(=O)[C@@H]1CSC2c3ccccc3C(=O)N21)C(=O)N1CCC[C@H]1CO (some centres undefined)
24	COc1ccccc1-c1cnc(C(O)c2ccc(C(C)(C)C)cc2)[nH]1 (centres undefined)
Screen / compound no.	15	16	17	18	19	20	21	22	23	24
eIF4H FP inh	-2	-5	/	/	3	-3	0	4	-4	/
CSC inhib	13	1	/	3	2	43	48	2	-13	/
PABP FP inh	-8	-7	/	/	11	-8	-2	-3	5	/
Rce1 inh	i	i	/	i	i	i	i	i	i	/
Env fusion inh	-136	-1	-33	-10	-15	8	/	/	/	-6
Yeast UUG start	-16	/	-16	/	-15	/	-1	-17	-9	-17
MT1-MMP act inh	-2	0	3	6	-1	-5	1	4	3	3
MT1-MMP act inh RFP	1	2	-5	-2	-1	-12	3	7	4	-6

25	Cc1[nH]nc2c1C1(CCOCC1)C(C#N)=C(N)O2
26	CCCN(C(=O)COc1ccc(C(C)=O)cc1OC)C1CCS(=O)(=O)C1 (centres undefined)
27	O=C(/C=C/c1ccc(Br)o1)OCc1nc2ccsc2c(=O)[nH]1
28	C=C(C)Cn1c(CCCNC(=O)CCC)nc2ccccc21
29	Cc1ccc(C2C(C(N)=S)=C(N)OC3=C2C(=O)CC(C)(C)C3)cc1 (centres undefined)
30	CC(N=Cc1cc([N+](=O)[O-])ccc1O)c1ccccc1 (centres undefined)
Screen / compound no.	25	26	27	28	29	30
eIF4H FP inh	-8	/	/	4	-18	7
CSC inhib	-10	5	-11	-8	-2	5
PABP FP inh	-6	/	/	12	-19	24
Rce1 inh	i	/	i	i	i	i
Env fusion inh	/	/	/	-36	12	-5
Yeast UUG start	-14	6	-9	-8	/	-16
MT1-MMP act inh	5	3	-2	13	0	4
MT1-MMP act inh RFP	6	2	3	12	6	6

31	O=C(CCc1c[nH]c2ccccc12)NCC(=O)Nc1ccc(F)c(F)c1F
32	Nc1ccc(S(=O)(=O)Nc2nccc(/C=C/c3ccc(Br)s3)n2)cc1
33	Cc1sc2ncnc(SCC(=O)c3ccc4c(c3)OCCO4)c2c1-c1ccccc1
34	CCCCNC(=S)Nc1ccc(OC)nc1
35	Cn1c(=O)oc2cc(S(=O)(=O)N3CCCc4ccccc43)ccc21
36	CC1=CC(C)(C)N(C(=O)CSc2nncn2C)c2ccccc21
Screen / compound no.	31	32	33	34	35	36
eIF4H FP inh	-5	-11	1	?	-9	-9
CSC inhib	-2	-10	2	-4	73	-18
PABP FP inh	9	7	2	23	-3	-1
Rce1 inh	i	i	i	i	i	i
Env fusion inh	14	-9	25	13	17	/
Yeast UUG start	17	/	/	/	-9	-16
MT1-MMP act inh	3	-6	-1	-7	4	9
MT1-MMP act inh RFP	1	-1	-7	4	-15	1

37	CCCCOCCCNC(=O)c1ccc(OC)cc1
38	O=C(NCC1CCNCC1)c1ccncc1
39	C=CCn1c(=O)n(CCC#N)c(=O)n(CCC#N)c1=O
40	COc1ccc2cnnc(SCC(=O)Nc3ccccc3)c2c1OC
41	CCC(C)(C)NC(=O)c1cc(S(=O)(=O)N2CCc3ccccc32)cn1C
42	CN(Cc1ccccc1)S(=O)(=O)c1ccc2c(c1)OCCO2
Screen / compound no.	37	38	39	40	41	42
eIF4H FP inh	-9	-3	0	15	4	-16
CSC inhib	-1	-2	0	2	5	-3
PABP FP inh	-2	10	-4	27	6	0
Rce1 inh	i	i	i	i	i	i
Env fusion inh	/	/	-19	/	40	/
Yeast UUG start	-1	/	-18	-10	1	-15
MT1-MMP act inh	-3	0	0	-11	1	-4
MT1-MMP act inh RFP	3	3	6	3	-24	-4

43	NC(=O)c1ccc(NC(=O)COC(=O)/C=C/c2ccc(Br)o2)cc1
44	COC(=O)[C@H](Cc1ccccc1)NCCCn1cnc(C(=O)Nc2ccc(C)c(C)c2)n1
45	CC(OC(=O)Nc1cccc(Cl)c1)C(=O)O (centres undefined)
46	O=C(COC(=O)c1cc(S(=O)(=O)N2CCCCC2)ccc1N1CCOCC1)c1ccccc1Cl
47	CCC(CC)c1nnc(NC(=O)CCNC(=O)c2ccccc2Cl)s1
48	CCN1CCN(CC(O)COc2ccc3c(c2)CCC3)CC1 (centres undefined)
Screen / compound no.	43	44	45	46	47	48
eIF4H FP inh	/	/	-4	/	1	-3
CSC inhib	7	/	-3	/	-7	-7
PABP FP inh	/	/	12	/	8	-1
Rce1 inh	/	/	i	/	i	i
Env fusion inh	/	6	3	3	8	17
Yeast UUG start	-13	4	-21	-8	/	/
MT1-MMP act inh	-5	0	1	5	4	2
MT1-MMP act inh RFP	5	2	2	-2	3	4

Results in sequence from the list.
Rce1 inh for nos. 44 to 48 → /, i, /, i, i
Env fusion inh for nos. 44 to 48 → 6, 3, 3, 8, 17

Additional compounds.
49	COc1ccc(CN2CCC(CO)(CCOc3ccccc3)CC2)cc1C
50	Clc1ccccc1N=C1NN=C(c2cccs2)CS1
51	COc1ccccc1CNC(=O)c1oc2ccc(S(=O)(=O)N3CCCC3)cc2c1C
52	CC1(c2nnc(-c3ccncc3)o2)CC(c2ccccc2)=NO1 (centres undefined)
53	CC(C)(C)C1CCC(=NNC(=O)C(=O)NCc2ccco2)CC1 (centres undefined)
54	O=c1ccn(CCOc2ccc(Cl)cc2)c(=O)[nH]1
55	CC(Sc1nc(NCc2ccccc2)nc(N(C)C)n1)C(=O)Nc1ccccc1 (centres undefined)
Screen / compound no.	49	50	51	52	53	54	55
eIF4H FP inh	10	1	-7	/	-1	-3	8
CSC inhib	/	11	-1	2	-5	16	3
PABP FP inh	0	-3	-10	/	1	6	0
Rce1 inh	i	i	i	i	i	i	i
Env fusion inh	11	-48	/	6	12	/	9
Yeast UUG start	12	-20	-24	-14	/	-21	4
MT1-MMP act inh	6	-6	-2	-1	-1	0	-5
MT1-MMP act inh RFP	3	-5	-9	-3	-4	2	-12

Not all compounds are listed. The share of hits here may be higher or lower than overall.
